HSV augment: HSV replication enhancement | AID 1956 | 220,000 tested, 0.005% active | maximum fold increase | HSV replication augmentation in cells, fold increase;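 active means peak rise of 1.5-fold or more in the series; tested in PC3 cells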;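 further: first round at 10 µM; read as green reporter fluorescence; hits show the peak of a series up to 25 µM; 1 = signal of infected wells without compound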
RGS16-Gao HTS: modulates binding between human RGS16 and Galphao | bead-based flow cytometry RGS16-Galphao binding, fluorescence; actives lie on both sides | binding response (% of control), % at 10 µM | O15492+P09471 | 220,000 tested, 0.38% active;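 active means below 25% or above 175%, edge rows of some plates excepted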;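 further: Galphao activated by GDP with aluminum fluoride before binding; 100% = wells without compound and 0% = beads without RGS; some results beyond the cut were filed as inactive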
PKD1 inh: PKD1 (human) kinase inhibition | Q15139 | PKD1 kinase fluorescence polarization assay | inhibition, %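 (about 10 µM by stock and volumes)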 | 200,000 tested, 0.056% active | AID 797;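 active means inhibition of 50% or more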;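 further: controls were vehicle for no effect and a reference inhibitor for full effect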
Target sequence (Q15139 whole entry, looked up): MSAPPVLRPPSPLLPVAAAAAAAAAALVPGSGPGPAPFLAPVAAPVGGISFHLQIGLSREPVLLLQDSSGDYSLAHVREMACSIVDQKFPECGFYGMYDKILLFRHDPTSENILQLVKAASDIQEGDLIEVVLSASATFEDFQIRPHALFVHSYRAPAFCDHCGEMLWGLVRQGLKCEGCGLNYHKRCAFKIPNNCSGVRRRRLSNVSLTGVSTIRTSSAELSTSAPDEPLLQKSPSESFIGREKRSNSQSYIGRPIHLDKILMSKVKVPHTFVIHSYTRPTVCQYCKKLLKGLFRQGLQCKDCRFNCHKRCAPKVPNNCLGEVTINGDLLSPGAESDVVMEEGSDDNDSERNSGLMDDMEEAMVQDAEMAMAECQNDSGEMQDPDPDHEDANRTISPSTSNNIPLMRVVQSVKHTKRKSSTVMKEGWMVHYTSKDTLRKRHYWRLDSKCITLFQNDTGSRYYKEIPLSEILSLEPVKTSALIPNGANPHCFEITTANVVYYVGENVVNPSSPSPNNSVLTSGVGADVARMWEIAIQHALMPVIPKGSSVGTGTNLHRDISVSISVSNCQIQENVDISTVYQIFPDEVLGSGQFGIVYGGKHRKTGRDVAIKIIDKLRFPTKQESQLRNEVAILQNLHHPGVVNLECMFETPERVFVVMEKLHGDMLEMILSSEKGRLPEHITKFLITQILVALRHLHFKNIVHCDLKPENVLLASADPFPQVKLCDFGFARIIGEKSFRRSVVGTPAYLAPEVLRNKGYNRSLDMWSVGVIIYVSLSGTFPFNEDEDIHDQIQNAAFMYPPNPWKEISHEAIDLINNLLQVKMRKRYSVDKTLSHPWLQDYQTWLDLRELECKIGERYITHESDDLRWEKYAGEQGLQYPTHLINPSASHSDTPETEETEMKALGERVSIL
INS promoter inh: TRM-6 insulin promoter activity inhibition; TRM-6 cells (human fetal islet line), insulin promoter-eGFP reporter, imaging; reporter expression induced with tamoxifen; inhibition, % at 2 µM; 130,000 tested, 0.9% active;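 active means inhibition above the mean plus 3 SD, with well images judged a real hit on visual review, cut at about 60% in these data, passing the limit was not always enough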
GALR2 ag: agonists of human galanin receptor 2 (GALR2) | activation, %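 (tested at 5 µM)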 | 140,000 tested, 0.48% active | GALR2-expressing cells, agonist activation read-out | AID 803 | O43603;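 active means above mean plus 3 SD of all compounds, about 5% in these data, not always enough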;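 further: 0% = vehicle buffer wells and 100% = reference agonist at full effect; tested in CHO reporter cells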
INS promoter inh cell count: also measured in INS promoter inh; calls as there; normalized cell count, %; measured here: cell count, toxicity; reference of the scale not given here;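 cells exposed to compound for 48 h; stained nuclei by imaging scaled within each plate; lower means fewer cells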
HSV augment primary fold: recorded beside HSV augment, whose call it bears; fold increase; compound at 10 µM; measured here: primary screen fold increase 10 uM; tested in PC3 cells;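 GFP signal in the first replicate; 1 = infected wells without compound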
* hit, by the source's call; i = inactive; · = not tested or not shown.

Results follow in this order: RGS16-Gao HTS, INS promoter inh cell count, HSV augment primary fold, HSV augment, PKD1 inh, INS promoter inh, GALR2 ag
#1 COc1cccc(/C=C/c2ccc3ccccc3n2)c1OC(C)=O
    95, ·, 0.81, i, -8, ·, ·
#2 O=C(Cn1nnc(-c2ccccc2Cl)n1)N/N=C/c1ccc2c(c1)OCO2
    105, 74, 0.93, i, -11, 14, -2.1
#3 Cc1oc2ccccc2c1-c1cn2c(n1)SCC2
    102, 119, 0.89, i, 0, 25, -1.8
#4 Fc1ccccc1NC(=S)NN(Cc1ccccc1)c1ccccc1
    99, 97, 1, i, -7, 22, -1.7
#5 O=C(Nc1cccc(CCc2ccccn2)c1)c1ccc(Cl)cc1
    101, ·, 1.1, i, -6, ·, ·
#6 O=C(C1=C[C@H](c2ccc3c(c2)OCO3)C[C@H](OCCCCO)O1)N1CCN(Cc2ccc3c(c2)OCO3)CC1
    101, ·, 0.93, i, 1, ·, ·
#7 CC(Sc1ncc(C(F)(F)F)cc1Cl)C(=O)NC(N)=O (stereo not given)
    106, ·, 0.91, i, -4, ·, ·
#8 O=C(COc1ccc(/C=N/NS(=O)(=O)c2ccccc2)cc1)N1CCOCC1
    104, 120, 0.95, i, -1, 0, ·
#9 O=C1CSC(=S)N1/N=C/c1ccc(O)c(O)c1O
    90, ·, 1.1, i, ·, ·, ·
#10 CCn1c(C(=O)N2CCC(C(=O)N3CCN(c4ccccn4)CC3)CC2)cc2sccc21
    102, ·, 0.93, i, -5, ·, -1.6
#11 COc1ccccc1C(OC(=O)c1cccs1)C(=O)NCc1ccco1 (stereo not given)
    93, ·, 0.9, i, -6, ·, -0.9
#12 CC(C(=O)N1CCc2ccccc2C1)N1C(=O)c2ccccc2C1=O (stereo not given)
    102, ·, 1.2, i, ·, ·, ·
#13 COc1ccc(CCn2c(-c3ccc(C(C)(C)C)cc3)n[nH]c2=S)cc1OC
    90, 88, 0.97, i, -4, 32, ·
#14 CCC(=O)Nc1cc2nn(-c3ccc(OC)cc3)nc2cc1C
    101, 87, 0.93, i, -9, -22, -0.3
#15 COc1ccccc1CNC(=O)c1ccc(SC)cc1OC
    103, ·, 0.83, i, -10, ·, -3.0
#16 Cc1ccc(C(=O)COC(=O)c2cc(=O)[nH]c3ccccc23)cc1
    106, ·, 0.77, i, -3, ·, ·
#17 Cc1ccc(Cn2c(SCC(=O)NCC3CCCO3)nc3c2c(=O)n(C)c(=O)n3C)cc1 (stereo not given)
    101, 134, 0.92, i, -9, -114, ·
#18 Cc1cccc(N2CCC(N=CN(C)C)=N2)c1
    104, 105, 1.2, i, 1, -14, ·
#19 CCCn1nnc(NC(=O)c2cc(Br)cc(Br)c2OC)n1
    99, 73, 0.87, i, 3, -36, 1.9
#20 Cn1c(SCC(=O)O)nc2ccccc2c1=O
    103, 52, 0.65, i, -2, -164, -0.1
#21 C=CCNc1nnc(C)c2ccccc12
    105, 107, 0.99, i, -1, 27, -1.8
#22 CCOc1ccccc1OCC(=O)NCc1ccco1
    99, 106, 0.94, i, -1, 19, -1.1
#23 COc1cc(OC)cc(C(=O)NCCN2C(=O)S/C(=C\c3cccs3)C2=O)c1
    101, ·, 0.96, i, -6, ·, ·
#24 CCCCC1(C)NC(=O)c2c(C)sc(C(=O)OCC)c2N1 (stereo not given)
    105, 122, 1.1, i, 4, -37, 0.5
#25 CC(=O)Nc1c(C(N)=O)oc2ccc(Cl)cc12
    101, ·, 1.1, i, ·, ·, ·
#26 CC(C)(C)c1ccc(N2C(=O)Cc3c2nc(N)c(C#N)c3N)cc1
    98, 147, 0.77, i, -1, -14, -0.9
#27 CC(CCc1ccccc1)NC(=O)CN1CCN(Cc2ccccc2)C1=O (stereo not given)
    101, ·, 0.82, i, 14, ·, -1.3
#28 CCOC(=O)c1sc2nc(N3CCOCC3)c3c(c2c1N)CCN(Cc1ccccc1)C3
    114, 128, 1, i, -3, 37, -1.1
#29 CCN(CC)S(=O)(=O)c1cccc(-c2nnc(SCc3nnc(-c4ccccc4)o3)n2C)c1
    39, 119, 1, i, -3, 4, -0.8
#30 COc1ccc(C(=O)NNC(=O)CSc2nnc(-c3cccnc3)o2)cc1
    105, ·, 1, i, -1, ·, ·
#31 Cc1ccc(O)c(C2=NNC(c3ccc(Cl)cc3)C2)c1 (stereo not given)
    106, ·, 0.91, i, ·, ·, ·
#32 CC(=O)c1ccc(NC(=O)/C(=C\c2ccccc2)NC(=O)c2ccco2)cc1
    103, 126, 0.96, i, -5, 33, ·
#33 CC(C)(O)C(=O)NN(C(=O)c1ccccc1)c1cccc(Br)c1
    97, 137, 0.94, i, -4, -11, -1.1
#34 CC(=O)Oc1cc2c(C(C)=O)coc2c2ccccc12
    100, 73, 0.98, i, 2, 71, -1.6
#35 COc1ccc(/C=C(/NC(=O)c2cccc([N+](=O)[O-])c2)C(=O)O)cc1
    103, 107, 0.96, i, 1, 47, ·
#36 Cc1cc(Cl)c(OCCCN2CCCCC2)c(Br)c1
    105, 100, ·, ·, 2, -146, -0.2
#37 CC(=O)N1CCN(c2ccccc2NC(=O)Cc2ccc(Cl)cc2)CC1
    95, 110, 0.95, i, -3, -15, ·
#38 O=C(CN1CCN(Cc2ccccc2)CC1)Nc1ccc(-n2cnnn2)cc1
    109, ·, 1, i, -1, ·, ·
#39 CCN(CC)CCN1C(=O)C(O)=C(C(=O)c2sc(C)nc2C)C1c1cccnc1 (stereo not given)
    165, 118, 0.92, i, 6, 0, -0.1
#40 CC(C)NC(=O)c1cccc(Cn2cc(Cl)cn2)c1
    96, ·, 0.87, i, 11, ·, -1.9
#41 CCC(Cc1ccccc1)n1c(=S)[nH]c2ccccc2c1=O (stereo not given)
    100, 45, 0.89, i, -4, 33, ·
#42 Cc1ccc(O)c(-c2cc(C(=O)NCc3ccc4c(c3)OCO4)[nH]n2)c1
    120, 37, 1, i, -8, -56, -1.1
#43 COc1ccc(C(=O)Nc2ccc(N3CCN(c4ccc(OC)cc4)CC3)c(C#N)c2)cc1
    96, ·, 0.94, i, -15, ·, 1.2
#44 CCN(C(=O)COC(=O)c1cc(-c2ccccc2)nc2c1c(C)nn2-c1ccccc1)C1CCS(=O)(=O)C1 (stereo not given)
    44, 68, 0.95, i, 5, 56, -0.1
#45 CN(NC(=O)COc1ccccc1)c1ccccc1
    99, ·, 1.1, i, -6, ·, 0.1
#46 O=C(NCc1ccccn1)c1cccs1
    89, 100, 0.83, i, 0, 17, -0.9
#47 Cc1cccc2cc(/C=N/NC(=O)c3ccccc3O)c(Cl)nc12
    93, 110, 1.2, i, 0, -35, -0.9
#48 COc1cc(NC(=O)C2CCCC2)c(OC)cc1Cl
    102, ·, ·, ·, 2, ·, 0.9
#49 COc1ccc(OC)c(-c2c3c([nH]c(=S)c2C#N)CCCC3)c1
    88, 146, 0.97, i, 7, 12, ·
#50 CCn1nc(NC(=O)c2ccncc2)c2cc3ccc(C)cc3nc21
    113, ·, 0.87, i, -3, ·, -1.0
#51 Cc1cc(C)n(/N=C/c2cccc([N+](=O)[O-])c2)c(=O)c1
    152, 84, 0.98, i, 4, 58, -0.4
#52 Cn1nccc1CNC(=O)c1c(Cl)cnn1C
    94, 123*, 1, i, -2, 73*, -0.5
#53 CCN(Cc1ccccc1)c1ccc(/C=N/N2CCOCC2)cc1
    109, 144, 0.88, i, 4, 7, -0.8
#54 Oc1ccc(-c2cn3cc(C(F)(F)F)ccc3n2)cc1
    106, 127, 0.8, i, -8, 21, -1.1
#55 O=C(O)c1cccc(-c2ccc(/C=N/NC(=O)c3cccnc3)o2)c1
    106, 99, 0.99, i, 6, 24, 0.1
#56 COc1ccccc1CNc1ccc2nnc(CCNC(=O)c3ccccc3)n2n1
    102, 108, 1.1, i, -3, 53, ·
#57 Cc1cc(NC(=O)CSc2nc3ccccc3c(=O)n2CCCC(=O)NCc2ccco2)n[nH]1
    108, 101, 0.9, i, 4, -17, -1.4
#58 Cc1ccc(S(=O)(=O)Nc2ccccc2CNc2ccc(Br)cn2)cc1
    98, 123, 0.89, i, -3, 3, -0.6
#59 Cc1ccc(S(=O)(=O)N2C(=O)C(C)SC2=Nc2ccccc2)cc1 (stereo not given)
    107, ·, 0.93, i, 14, ·, 1.0
#60 Clc1nc(-c2n[nH]nc2Cl)n[nH]1
    99, 145, 1, i, -5, -87, -1.2

Next results follow:
Results follow in this order: RGS16-Gao HTS, INS promoter inh cell count, HSV augment primary fold, HSV augment, PKD1 inh, INS promoter inh, GALR2 ag
#61 Cc1ccc2nsnc2c1NC(=O)c1ccc(-c2cc(Cl)ccc2Cl)o1
    92, 114, 0.77, i, 12, -27, 10
#62 COc1ccc(CN2CC(C(=O)NCc3cccc(OC)c3)CC2=O)cc1 (stereo not given)
    49, 110, 1.2, i, -6, -73, -1.5
#63 COc1ccc(NC(=O)CSc2nc3cccnc3n2C)cc1
    100, ·, 0.87, i, 9, ·, ·
#64 COc1ccc(NC(=O)C2CCCN(C)C2)cc1OCC(C)C (stereo not given)
    109, 95, 0.74, i, 8, 44, -1.0
#65 COc1ccccc1Nc1nc(=O)[nH]nc1C
    99, 110, 0.92, i, 7, 4, -0.6
#66 CS(=O)(=O)N1CCN(c2ccccc2NC(=O)c2ccc([N+](=O)[O-])o2)CC1
    99, ·, 0.76, i, -4, ·, ·
#67 COc1ccc(CCNS(=O)(=O)c2cccc(C(=O)O)c2)cc1OC
    104, 144, ·, ·, -5, -67, -0.6
#68 Nc1ccc2c(c1)C(=O)N(CC1CCCO1)C2=O (stereo not given)
    93, 96, 0.96, i, 3, -150, 0.3
#69 CCOC(=O)c1c(NC(=O)CN2CCCCC2)sc2c1CCC(C=O)=C2Cl
    144, 74, 1, i, 4, -38, -1.2
#70 CCCN=C(C)c1c(-c2ccccc2)[nH]n(-c2nc3ccccc3s2)c1=O
    104, 59, 0.86, i, 0, 19, -2.7
#71 CC1CCCN(c2ccc(C(=O)NCc3ccco3)cc2[N+](=O)[O-])C1 (stereo not given)
    97, 127, 0.95, i, -4, 43, -0.7
#72 O=C1CC2CS(=O)(=O)CC2N1C1CCCCC1 (stereo not given)
    85, ·, 0.85, i, -14, ·, -2.2
#73 CCOC(=O)c1ccc(NC(=O)C2CCN(S(=O)(=O)c3ccccc3)CC2)cc1
    ·, ·, 1.2, i, -7, ·, -2.5
#74 COCCn1c(C)cc(C(=O)CSc2cc(C)c3ccc(OC)cc3n2)c1C
    96, 150, 1.5, i, -2, -15, -0.6
#75 CCOC(=O)N1CCC(NC(=O)c2sc3nc4n(c(=O)c3c2C)CCCC4)CC1
    100, 157, 1, i, 1, -21, -2.1
#76 CCOc1ccc2nc(NC(=O)CN3CCN(c4ccccn4)CC3)sc2c1
    91, 103, 0.96, i, -1, 54, -1.7
#77 CNC(=O)/C(C#N)=C/c1ccc(-c2ccc(OC)cc2[N+](=O)[O-])o1
    97, 81, 1, i, 3, -53, -2.3
#78 O=C(O)CSc1nnnn1C1CCCCC1
    101, ·, 1.1, i, -1, ·, ·
#79 O=C(O)C1CC(=O)N(c2ccc(F)c(F)c2)C1 (stereo not given)
    100, 28, 1, i, 7, -383, -1.4
#80 c1ccc(COC2CCCN(Cc3nc(-c4cnccn4)no3)C2)cc1 (stereo not given)
    93, ·, 0.92, i, 8, ·, ·
#81 COc1ccc(-c2csc3nc(C(C)C)oc(=O)c23)cc1OC
    103, ·, 0.96, i, -6, ·, ·
